# ClpP mod: qHTS Assay for Activators of ClpP | ATP-dependent Clp protease proteolytic subunit (Bacillus subtilis (strain 168)), P80244 | purified B. subtilis ClpP, FRET peptide cleavage, 20 min | Potency, µM (titrated, usually from 57.5 µM), without a hit: top-dose activity change, negative = active | actives 1.9% (n = 340,000) | AID 651965, 2013; active = well fitted falling curve with a large enough effect; inconclusive = small, poorly fitted or top-dose-only effect; inactive = no such curve, though single readings can be large or run the other way; also: potency is read from the fitted curve at half-maximal effect; the source files actives as falling curves though it sought activators and does not explain the sign; nearly all actives have a fitted effect of over 65% in size; many hits overshoot -100%
# Target sequence (P80244 whole entry, looked up): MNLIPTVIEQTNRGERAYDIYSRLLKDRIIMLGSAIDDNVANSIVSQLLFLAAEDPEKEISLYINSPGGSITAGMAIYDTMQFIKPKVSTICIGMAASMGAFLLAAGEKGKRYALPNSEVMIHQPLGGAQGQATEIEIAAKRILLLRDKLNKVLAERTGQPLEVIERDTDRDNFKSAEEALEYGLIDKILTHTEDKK
#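 ClpP 10 microg/mL final, pH 8 Tris/KCl buffer with BSA, glycerol, Tween-20; compound pinned in; FRET-FV substrate; RT 20 min; Ex320/Em430; ΔFRET vs ADEP 5.8 microM, DMSO, no enzyme.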
# TRPV1 PAM: human TRPV1 potentiation; actives 0.02% (n = 320,000); Q8NER1; potentiation, % at 8.33 µM; TRPV1-expressing cells, Fluo-8 calcium influx, capsaicin EC20 potentiation; host cell line not named in the record; control for the full effect not named in the record; active means potentiation above 80%; inconclusive means 30% to 80%; inactive means below 30%; also: 0% is about no effect
# Target sequence (Q8NER1 whole entry, looked up): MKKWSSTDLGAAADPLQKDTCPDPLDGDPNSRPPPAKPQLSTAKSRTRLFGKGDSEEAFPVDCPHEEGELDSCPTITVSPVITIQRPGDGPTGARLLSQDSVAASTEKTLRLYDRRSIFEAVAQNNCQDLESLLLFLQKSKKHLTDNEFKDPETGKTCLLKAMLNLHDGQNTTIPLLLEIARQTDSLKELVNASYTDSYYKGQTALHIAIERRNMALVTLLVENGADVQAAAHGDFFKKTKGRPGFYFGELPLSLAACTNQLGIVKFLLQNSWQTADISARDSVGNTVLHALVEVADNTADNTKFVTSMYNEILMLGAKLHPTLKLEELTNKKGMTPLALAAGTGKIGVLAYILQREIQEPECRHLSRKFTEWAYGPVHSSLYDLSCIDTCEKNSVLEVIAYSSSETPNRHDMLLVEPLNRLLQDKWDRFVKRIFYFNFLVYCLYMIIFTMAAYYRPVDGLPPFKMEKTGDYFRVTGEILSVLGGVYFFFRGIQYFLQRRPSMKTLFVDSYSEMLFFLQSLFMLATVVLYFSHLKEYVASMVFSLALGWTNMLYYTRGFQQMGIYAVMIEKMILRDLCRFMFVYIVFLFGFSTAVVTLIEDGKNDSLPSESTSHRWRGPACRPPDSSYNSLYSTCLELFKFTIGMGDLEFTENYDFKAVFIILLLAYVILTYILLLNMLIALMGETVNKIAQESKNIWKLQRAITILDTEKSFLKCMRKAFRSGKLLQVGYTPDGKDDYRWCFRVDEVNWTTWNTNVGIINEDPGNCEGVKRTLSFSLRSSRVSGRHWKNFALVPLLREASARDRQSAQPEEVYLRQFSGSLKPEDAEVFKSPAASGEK
#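 Fluo-8 calcium influx in TRPV1-expressing cells, kinetic read (ex 480/em 520 nm). Compound added and read 3 min for agonist activity, followed by capsaicin at EC20 final and 2 min further read for enhancement.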
# gsp agonist: agonists of gsp mutant (McCune-Albright syndrome). actives 0.13% (n = 340,000). gsp mutant cells, cAMP HTRF, 30 min; control for the full effect not named in the record. Potency, µM (series often up to 76.9 µM), for inactives: top-dose activation (cAMP increase), hits mostly activators; active = well fitted activation curve with a large enough effect; inconclusive = small, poorly fitted or top-dose-only effect, or another doubt; inactive = no such curve, though single readings can be large or run the other way; cell line not stated here;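 also: phosphodiesterase inhibitor Ro 20-1724 added with compounds to block cAMP breakdown; potency is read from the fitted curve at half-maximal effect; nearly all actives have a fitted effect of over 60% in size; about a fifth of the inactives were tested at one dose only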
#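 Cells stably selected in G418 were plated at 2000/well, grown 16-24 hr, then given compounds in DMSO with the PDE inhibitor […] (300 uM solution added) for 30 min at 37C; cAMP was read by HTRF.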
# Menin MLL FP FL: inhibitors of human menin-MLL interaction, wild-type MLL peptide; Fluorescence polarization, fluorescein-MLL peptide displacement from menin; 290,000 tested, under 10 active; FP activity change, % at 61.4 µM; inconclusive = falling polarisation curve, or a change in total fluorescence; inactive = total fluorescence flat and polarisation flat or rising; no compound was filed as active; the % refers to the polarisation; negative = inhibition;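 also: % of control where 0% means no effect; inhibitors lower the polarisation; unlabelled MLL peptide was the positive control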
# Sfp PPTase inh: blocks B. subtilis Sfp PPTase activity; Q9F4F7; Biochemical Sfp PPTase activity, qHTS; Potency, µM, without a hit: max response, negative = inhibition, most hits filed as inhibitors; actives 3.5% (n = 310,000); active = well fitted inhibition curve with a large enough effect; inconclusive = small, poorly fitted or top-dose-only effect, or another doubt; inactive = no such curve, though single readings can be large or run the other way;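 also: the enzyme is Sfp with the accession as filed and its product quenches rhodamine fluorescence; potency is read from the fitted curve at half-maximal effect; 0% = enzyme reaction without inhibitor and -100% = no enzyme wells; top concentration of the series not given in the record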
#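 Fluorescence-quenching assay with 15 nM Sfp, 5 uM rhodamine-CoA and 12.5 uM BHQ-2-labelled ybbR peptide in pH 7.6 Hepes/MgCl2 buffer. Enzyme was pre-incubated with compound for 15 min at room temperature. Rate was taken from the 30-min fluorescence change (525/598 nm).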
# CtBP-E1A inh: inhibitors of CtBP/E1A interaction. AlphaScreen GST-E1A/His-CtBP binding, 1536-well; hits give low values; control for the full effect not named in the record. activity change, % (concentration not given with the values). actives 0.49% (n = 340,000); in the data active means activity change below about -65%; inconclusive means about -30% to -65%; inactive means above about -30%; also: % is scaled to controls: 0 for no effect and ±100 for the full control effect
#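 Protein mix (5X: 125 nM each GST-E1A, His-CtBP) was incubated with pinned compound 2 h at 37 deg C in dark, in 50 mM Tris pH 8.0 buffer with 300 mM NaCl. Glutathione donor and nickel acceptor beads followed; AlphaScreen signal read after 1 h.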
# gsp antag: antagonizes gsp, the McCune-Albright syndrome mutation. gsp-mutant cells, cAMP HTRF, 30 min; control for the full effect not named in the record. Potency, µM (highest dose often 76.9 µM), for inactives: at the top dose activity change, negative = inhibition, most hits filed as inhibitors. actives 0.4% (n = 340,000). AID 624288; active = falling curve of any shape with a large fitted effect; inconclusive = falling curve, mostly with a smaller effect; inactive = flat or rising curve; cell line not stated here;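 also: intracellular cAMP measured with PDE inhibitor Ro 20-1724 present during compound exposure; potency is read from the fitted curve at half-maximal effect; % is scaled to controls: 0 for no effect and ±100 for the full control effect; nearly all actives have a fitted effect of over 65% in size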
#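 HTRF cAMP measurement after 30 min RT detection following 30 min, 37C compound treatment alongside […] (added as 300 uM solution) in G418-selected cells seeded at 2000/well and grown 16–24 h.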
# Active calls of the source: *; ? = inconclusive; · = not tested or not shown; [ ] = another dose, or the depositor's remark.
smiles	gsp antag	Menin MLL FP FL	TRPV1 PAM	Sfp PPTase inh	gsp agonist	CtBP-E1A inh	ClpP mod
CN(c1ccc(C(=O)NCc2ccccc2)cc1)S(C)(=O)=O	2.2%	1.4	0.3	8.6%	0.4%	4.3	0.7%
Cc1ccc(-c2nn3c(C)nnc3c3ccccc23)cc1S(=O)(=O)NCc1ccco1	9.5%	0.9	-11.9	8.5%	-6.8%	8.3	-8.5%
COc1ccc(CCNc2ccc(S(N)(=O)=O)cn2)cc1	4.0%	6.5	0.8	7.5%	-10.3%[15.4 µM]	7.7	·
COc1ccc(CCNC(=S)NC(=O)c2cccc(Cl)c2)cc1OC	?	4.7	6.0	-6.2%	-45.9%[inhibitor]	-22.1	·
CCCc1c(O)nc(SCc2ccccc2)[nH]c1=O	-7.8%	-3.5	8.0	-0.9%	-9.7%	0.0	0.3%
CC(c1ccccc1)N1C(=O)/C(=C/c2ccncc2)SC1=S (centres undefined)	-11.8%	2.4	-5.4	-29.8%	2.5%	·	-1.4%
Cc1cccc(NC(=O)CSC(N)=O)c1C	9.2%	3.8	-4.2	-25.3%	?	3.0	-0.3%
CC(C)CCNC(=O)CN1C(=O)NC(c2ccccc2)(c2ccccc2)C1=O	-1.6%	-0.7	-3.4	-10.7%	-9.6%[15.4 µM]	6.7	·
O=c1c2c(-c3ccccc3)csc2ncn1/N=C/c1c2ccccc2cc2ccccc12	7.0%	4.2	-17.3	8.7%	-0.6%	4.3	3.3%
Cc1ccc(NC(=O)C2CCN(C(=O)c3cccs3)CC2)cc1	-4.7%	-5.8	6.0	4.8%	-5.6%[15.4 µM]	1.8	·
CC(=O)c1cc(C#N)c(N2CC(C)OC(C)C2)nc1C (centres undefined)	·	2.1	-0.3	17.0%	-10.6%[15.4 µM]	2.6	·
Cc1nc(SCC(N)=O)c(C#N)c(C)c1C	0.6%	-1.6	-6.2	6.7%	-5.8%	-0.9	0.0%
S=C(NCCN1CCOCC1)Nc1ccc(Nc2ccccc2)cc1	-0.8%	-2.0	3.5	-2.4%	-2.0%[15.4 µM]	-8.7	·
COc1ccc(Nc2nc3c([nH]2)c(=O)[nH]c(=O)n3C)cc1	-30.9%	-1.2	5.8	-0.5%	10.0%	-18.7	·
CC(C)(CNC(=O)Cc1ccc(Cl)cc1Cl)N1CCCCC1	10.2%	3.4	0.0	-10.5%	27.0%	3.2	·
C=CCn1c(SCC(=O)Nc2ccc(F)cc2)nc2ccccc2c1=O	-20.1%	5.9	-7.0	12.2%	-13.4%	-1.8	1.0%
O=Cc1ccc(OCc2ccccn2)cc1	5.0%	1.0	7.5	-1.5%	5.6%	2.0	-1.5%
COc1ccc(Cl)cc1CN1CCN(c2nc(C)cc(C)c2C#N)CC1	-10.7%	?	-14.5	-12.2%	1.2%	-2.1	?
Cc1cc(O)cc(C)c1NS(=O)(=O)c1ccc2ccccc2c1	-15.1%	7.2	5.2	-4.0%	-6.5%	·	-1.5%
CC(C)c1nnc(NC(=O)CCC(=O)Nc2ccccc2)s1	5.0%	-7.6	6.1	7.1%	5.6%	·	-0.8%
C#CC[N+]1(CC#Cc2cccc3ccccc23)CCOCC1	5.4%	-0.6	0.0	2.7%	11.1%[15.4 µM]	·	·
CCn1c(C)nnc1SCC(=O)Nc1ccc2c(c1)OCCO2	6.1%	·	-1.8	25.0%	4.6%[15.4 µM]	-16.9	0.5%
CCOc1ccc(NC(=S)NS(=O)(=O)c2cc(Br)ccc2OCC)cc1	-17.9%	·	·	·	-34.0%[inhibitor]	·	-0.1%
COc1cc(NC(=O)CN2CCC(C)CC2)c(C)cc1[N+](=O)[O-]	-1.5%	0.5	-13.1	9.8%	22.2%	0.2	-13.6%
O=C(OCCN1CCOCC1)c1ccccc1	10.9%	-0.9	-49.1	19.0%	-6.6%[15.4 µM]	4.3	?
CC1CN(CCCOc2ccc([N+](=O)[O-])cc2)CC(C)O1 (centres undefined)	4.1%	3.2	1.3	-42.9%	-5.9%	-6.9	-4.1%
Cc1ccc2nc(-c3ccc(NS(=O)(=O)c4c(C)n(C)c(=O)n(C)c4=O)cc3)sc2c1	-11.7%	20.3	7.3	-11.4%	-1.3%	·	3.0%
COc1ccc(CNC(=O)CN2C(=O)C3CCCN3c3ncc(Cl)cc32)cc1 (centres undefined)	-5.6%	10.8	3.7	19.7%	-6.1%	-6.3	-16.7%
O=C1C2C3C=CC(C4CC34)C2C(=O)N1/N=C/c1ccc([N+](=O)[O-])o1 (centres undefined)	2.6%	9.5	2.3	4.9%	23.5%	0.0	·
CCNC(=O)N(CC)C[C@H]1N[C@@](Cc2ccccc2)(C(=O)OC)[C@H]2C(=O)N(C)C(=O)[C@@H]12	5.8%	·	·	·	·	0.9	0.7%

# Reprinted from the part before: 3 compounds, followed by the next part.
smiles	gsp antag	Menin MLL FP FL	TRPV1 PAM	Sfp PPTase inh	gsp agonist	CtBP-E1A inh	ClpP mod
COc1ccc(CNC(=O)CN2C(=O)C3CCCN3c3ncc(Cl)cc32)cc1 (centres undefined)	-5.6%	10.8	3.7	19.7%	-6.1%	-6.3	-16.7%
O=C1C2C3C=CC(C4CC34)C2C(=O)N1/N=C/c1ccc([N+](=O)[O-])o1 (centres undefined)	2.6%	9.5	2.3	4.9%	23.5%	0.0	·
CCNC(=O)N(CC)C[C@H]1N[C@@](Cc2ccccc2)(C(=O)OC)[C@H]2C(=O)N(C)C(=O)[C@@H]12	5.8%	·	·	·	·	0.9	0.7%
Cn1c(/C=N/NC(=O)c2ccccc2Br)nc2ccccc21	-12.2%	7.8	2.7	?	-30.2%[inhibitor]	-1.7	-22.0%
N=C1C(c2ccccc2)=C(O)CN1c1cccc(S(=O)(=O)N2CCCCC2)c1	?	3.0	-0.3	18.1%	0.2%	-4.1	0.1%
CCOC(=O)C1CCN(C(=O)C2CCN(c3nnc(-n4cccc4)s3)CC2)CC1	-6.7%	-1.3	-6.5	15.4%	-52.9%[inhibitor]	-10.7	-2.6%
O=c1c2ccccc2nc(/C=C/c2ccc3c(c2)OCO3)n1CCCO	-1.4%	-0.2	1.6	13.3%	41.7%[15.4 µM]	-12.5	·
CC(=O)NCC(=O)NC1CCCc2c1cnn2-c1ccc(C(C)(C)C)cc1 (centres undefined)	-0.5%	4.4	-6.0	5.7%	-29.3%	28.4	·
CCN1C(=O)C2C(c3cccc(F)c3)NC(C)(C(=O)OC)C2C1=O (centres undefined)	-8.9%	1.0	10.2	6.9%	-26.6%	-0.6	0.9%
O=C(COC(=O)c1cccc(S(=O)(=O)N2CCOCC2)c1)c1ccccc1	2.0%	-1.7	?	3.8%	-0.5%[15.4 µM]	-3.7	·
CCC(=O)N1CC2(C)CN(C(=O)CC)CC(C)(C1)C2	3.2%	0.7	·	11.1%	-12.1%	5.7	0.9%
CC1CCCC(C)N1C(=O)COC(=O)CCC(=O)c1cccs1 (centres undefined)	7.2%	·	·	·	-18.4%	4.1	·
COc1ccc2nc(C3CCCCC3)nc(C3CCCCC3)c2c1	-2.4%	·	5.1	·	·	5.1	-2.1%
Cn1c(=O)[nH]c(=O)c2c1nc(N1CCCCC1)n2CC(O)CN1CCCCC1 (centres undefined)	13.3%	0.3	-9.4	8.3%	1.4%	0.0	-0.5%
Cc1ccc(C)n1NC(=O)c1ccccc1	10.5%	2.4	11.7	26.3%	-21.7%	4.0	0.1%
CCC1(CC)NC(=O)N(CC(=O)OCC(=O)Nc2ncc(Cl)cc2Cl)C1=O	1.6%	·	15.9	·	?	1.2	-1.7%
CCc1cc(C(=O)NC2CCCc3c2cnn3-c2ccc(F)cc2F)no1 (centres undefined)	·	·	·	·	-33.7%[inhibitor]	8.1	-0.6%
Cc1cc(C)c(C(=O)c2ccc(C(=O)N(C(C)C)C(C)C)cc2)c(C)c1	-26.3%	0.1	-11.6	-5.6%	-11.5%	0.5	0.3%
COc1ccc(C)cc1NC(=O)C(c1ccccc1)N1CCN(CC(=O)N2CCOCC2)CC1 (centres undefined)	-3.2%	·	-1.0	·	-5.0%	2.4	-0.4%
COC(=O)c1ccc(S(=O)(=O)NCc2ccccc2)n1C	2.3%	3.0	-15.0	3.3%	7.5%[15.4 µM]	2.1	·
O=C(COc1cccc2cccnc12)Nc1nccs1	11.1%	-2.1	11.5	-13.9%	-0.6%	-10.5	-2.3%
Cc1ccc(NC(=O)CCc2nnc(SCC(=O)Nc3ccccc3C)n2C)cc1Cl	4.2%	2.9	-21.1	3.0%	-47.3%[inhibitor]	0.7	0.5%
O=C(O)CNS(=O)(=O)c1c(Cl)cccc1Cl	-0.9%	3.3	·	4.4%	-27.2%[15.4 µM]	11.0	·
CC(=O)c1cc(F)c(N2CCN(C(=O)COc3ccc(F)cc3)CC2)cc1C	?	0.9	-8.6	12.2%	11.9%	-4.6	-2.5%
C=CCn1c(OCc2ccccc2)n[nH]c1=S	-6.1%	2.4	13.2	-4.1%	6.6%	-8.0	·
O=C(COC(=O)Cc1ccc(Br)cc1)NCC1CCCCC1	-2.7%	-4.9	-24.1	7.1%	-1.3%	-14.0	·
Cc1ccc2c(c1)N(C(=O)CCC(=O)N1CCOCC1)CCO2	9.3%	-1.1	12.0	14.2%	-36.6%[inhibitor]	2.1	-0.3%
COc1cccc(-c2cc(C(=O)NN3CCOCC3)c3ccccc3n2)c1	-0.2%	2.1	1.7	9.0%	-3.6%	3.3	0.8%
CCOC(=O)c1ccc(N(C(=O)CNC(=O)c2ccco2)C(C(=O)NCC2CCCO2)c2ccc(OC)c(OC)c2)cc1 (centres undefined)	-2.6%	-0.5	16.3	10.8%	-9.6%[15.4 µM]	-0.9	·
CCOC(=O)C1CCN(CCC(=O)Nc2ccc(F)cc2)CC1	7.4%	3.0	6.7	12.0%	26.9%	-2.5	·

# High-throughput results (PubChem BioAssay)
